GALR2 ag = activates the human galanin receptor 2. GALR2-expressing cells, agonist activation read-out. activation, %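 (tested at 5 µM)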. actives 0.48% (n = 140,000);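 active = above mean plus 3 SD of all compounds, about 5% in these data, not always enough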;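 also: 0% = vehicle buffer wells and 100% = reference agonist at full effect; tested in CHO reporter cells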
Target sequence (O43603 whole entry, looked up): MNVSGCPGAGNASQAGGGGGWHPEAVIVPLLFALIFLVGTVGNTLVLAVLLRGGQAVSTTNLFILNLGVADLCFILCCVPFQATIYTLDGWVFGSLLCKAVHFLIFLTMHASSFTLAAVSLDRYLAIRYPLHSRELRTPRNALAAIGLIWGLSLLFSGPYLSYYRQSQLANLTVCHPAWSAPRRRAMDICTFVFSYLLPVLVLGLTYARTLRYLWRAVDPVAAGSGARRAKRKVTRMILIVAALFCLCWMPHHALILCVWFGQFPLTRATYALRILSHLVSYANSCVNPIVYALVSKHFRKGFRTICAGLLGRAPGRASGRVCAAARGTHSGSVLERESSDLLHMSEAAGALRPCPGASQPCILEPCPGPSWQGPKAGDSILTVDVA
HSV augment = HSV replication enhancement; HSV replication augmentation in cells, fold increase; maximum fold increase; actives 0.005% (n = 220,000);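 active = peak rise of 1.5-fold or more in the series; tested in PC3 cells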;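 also: first round at 10 µM; read as green reporter fluorescence; hits show the peak of a series up to 25 µM; 1 = signal of infected wells without compound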
PKD1 kinase inh = inhibitors of human PKD1 kinase. Q15139. PKD1 kinase fluorescence polarization assay. actives 0.056% (n = 200,000). inhibition, %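 (about 10 µM by stock and volumes)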;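 active = inhibition of 50% or more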;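 also: controls were vehicle for no effect and a reference inhibitor for full effect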
Insulin prom inh = TRM-6 insulin promoter activity inhibition; TRM-6 cells (human fetal islet line), insulin promoter-eGFP reporter, imaging; reporter expression induced with tamoxifen; inhibition, % at 2 µM; actives 0.9% (n = 130,000); AID 1273;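 active = inhibition above the mean plus 3 SD, with well images judged a real hit on visual review, cut at about 60% in these data, passing the limit was not always enough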
RGS16-Gao HTS = regulators of human RGS16-Galphao interaction; AID 1441; binding response (% of control), % at 10 µM; actives 0.38% (n = 220,000); O15492+P09471; bead-based flow cytometry RGS16-Galphao binding, fluorescence; actives lie on both sides;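 active = below 25% or above 175%, edge rows of some plates excepted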;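 also: Galphao activated by GDP with aluminum fluoride before binding; 100% = wells without compound and 0% = beads without RGS; some results beyond the cut were filed as inactive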
Target sequence (O15492 whole entry, looked up): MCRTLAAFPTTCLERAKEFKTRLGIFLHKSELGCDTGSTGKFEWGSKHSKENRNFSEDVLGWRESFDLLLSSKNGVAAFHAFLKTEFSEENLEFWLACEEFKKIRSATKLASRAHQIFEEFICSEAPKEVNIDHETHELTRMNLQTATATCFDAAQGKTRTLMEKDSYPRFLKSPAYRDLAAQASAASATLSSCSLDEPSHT
Target sequence (P09471 whole entry, looked up): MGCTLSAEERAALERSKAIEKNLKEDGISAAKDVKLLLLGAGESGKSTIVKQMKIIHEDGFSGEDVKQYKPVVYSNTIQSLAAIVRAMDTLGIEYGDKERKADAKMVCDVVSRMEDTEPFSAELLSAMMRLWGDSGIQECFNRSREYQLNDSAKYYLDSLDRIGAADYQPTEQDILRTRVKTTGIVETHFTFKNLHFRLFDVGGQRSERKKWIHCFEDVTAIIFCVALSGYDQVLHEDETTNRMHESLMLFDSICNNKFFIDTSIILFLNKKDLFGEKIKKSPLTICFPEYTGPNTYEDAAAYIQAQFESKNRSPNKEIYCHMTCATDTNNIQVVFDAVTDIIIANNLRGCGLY
Insulin prom inh cell count = second read-out of Insulin prom inh, no call of its own (marks repeat the call); normalized cell count, %; measured here: cell count, toxicity; reference of the scale not given here;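 cells exposed to compound for 48 h; stained nuclei by imaging scaled within each plate; lower means fewer cells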
HSV augment primary fold = further read-out of HSV augment, marked with its call; fold increase; compound at 10 µM; measured here: primary screen fold increase 10 uM; tested in PC3 cells;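 GFP signal in the first replicate; 1 = infected wells without compound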
Numbers without * were called inactive; i = inactive; nt = no result given.

Each structure is followed by: GALR2 ag	HSV augment	HSV augment primary fold	PKD1 kinase inh	Insulin prom inh	Insulin prom inh cell count	RGS16-Gao HTS
1. COc1ccc(C)cc1NC(=O)CN1CCN(S(=O)(=O)c2ccc(Br)cc2)CC1
→ 0.3	i	0.8	-4	21	148	101
2. NC(=O)NCc1ccccc1Cl
→ nt	i	1.1	0	nt	nt	99
3. O=C(CCc1nc(-c2ccccc2F)no1)NCCc1ccccc1Cl
→ -1.3	i	0.97	-1	-46	103	101
4. CCn1c(SCC(=O)Nc2ccc3c(c2)OCCO3)nnc1-c1cccs1
→ -0.6	i	1.1	-3	43	88	109
5. COc1ccc(-c2[nH]ncc2-c2nc(C)cs2)c(O)c1
→ nt	i	0.9	1	nt	nt	94
6. O=C(NCc1ccc2c(c1)OCO2)c1cccc([N+](=O)[O-])c1
→ -1.5	i	0.92	9	27	126	nt
7. Nc1cc(-c2ccccc2)nn1S(=O)(=O)c1ccc(F)cc1
→ 0.2	i	0.94	-2	nt	nt	97
8. CCOC(=O)C1(CCCc2ccccc2)CCN(C(=O)c2ccoc2)CC1
→ nt	i	1.1	-7	nt	nt	99
9. CCOC(=O)C1=C(c2ccccc2)NC(=O)NC1c1cc(Cl)c(O)c(OC)c1 (stereo not given)
→ nt	i	0.91	-3	13	89	84
10. O=C(Nc1ccc(Cl)cc1C(=O)Nc1ccccn1)c1ccco1
→ -2.1	i	0.55	0	8	107	107
11. O=C(NNC1=Nc2ccccc2SC1)c1cccc([N+](=O)[O-])c1
→ nt	i	0.94	nt	nt	nt	99
12. Cc1ccc(Nc2ncc3c(n2)CC(C)CC3=O)c(C)c1 (stereo not given)
→ nt	i	0.99	nt	nt	nt	101
13. COc1cc(C2SC(C)C(=O)N2CCc2ccccc2)cc(OC)c1OC (stereo not given)
→ nt	i	0.87	1	nt	nt	100
14. CCO[C@H]1OC(C(=O)NCc2nc3ccccc3[nH]2)=C[C@@H](c2ccc(C(F)(F)F)cc2)[C@@H]1CCCO
→ nt	i	0.8	-1	nt	nt	94
15. CCOc1cc(/C=N/Nc2nc(-c3cccs3)c(NC(C)=O)s2)ccc1O
→ nt	i	0.99	nt	nt	nt	94

As entered above:
compound 2 @ RGS16-Gao HTS: 99
compound 12 @ HSV augment primary fold: 0.99
compound 1 @ RGS16-Gao HTS: 101
compound 7 @ PKD1 kinase inh: -2
compound 6 @ Insulin prom inh cell count: 126

Back to the main list; the 4 compounds before the break are reprinted first.
Each structure is followed by: GALR2 ag	HSV augment	HSV augment primary fold	PKD1 kinase inh	Insulin prom inh	Insulin prom inh cell count	RGS16-Gao HTS
12. Cc1ccc(Nc2ncc3c(n2)CC(C)CC3=O)c(C)c1 (stereo not given)
→ nt	i	0.99	nt	nt	nt	101
13. COc1cc(C2SC(C)C(=O)N2CCc2ccccc2)cc(OC)c1OC (stereo not given)
→ nt	i	0.87	1	nt	nt	100
14. CCO[C@H]1OC(C(=O)NCc2nc3ccccc3[nH]2)=C[C@@H](c2ccc(C(F)(F)F)cc2)[C@@H]1CCCO
→ nt	i	0.8	-1	nt	nt	94
15. CCOc1cc(/C=N/Nc2nc(-c3cccs3)c(NC(C)=O)s2)ccc1O
→ nt	i	0.99	nt	nt	nt	94
16. Cc1ccc(NC(=S)NN(C)c2nc(C)cnc2C)cc1
→ -0.2	i	0.79	-2	-22	75	113
17. CNc1nnc(CSc2nc(C)cc(C)n2)s1
→ 0.8	i	1	-5	0	124	94
18. Cc1ccc(CC(=O)NCc2ccc(F)cc2)cc1
→ nt	i	0.71	2	14	111	95
19. CC1(C)Cc2c(sc3c2C(=O)N(c2ccccc2)C2=NCCCN23)CO1
→ -0.2	i	1	-3	55	137	108
20. O=C(c1ccccc1)N1CCN(CC#Cc2ccccc2)CC1
→ -1.0	i	0.85	8	-46	159	97
21. O=C(Nc1ccc(Br)cc1)C(c1ccccc1)c1ccccc1
→ nt	i	0.9	0	nt	nt	111
22. CC(O)c1cccc(NC(=O)CCCc2ccccc2)c1 (stereo not given)
→ nt	i	0.99	1	nt	nt	75
23. COC(=O)[C@H](Cc1ccccc1)NC(=O)N1CCCCC1
→ nt	i	0.97	nt	nt	nt	111
24. CC1Oc2ccccc2N(CC(=O)c2ccc(F)cc2)C1=O (stereo not given)
→ nt	i	0.85	2	-50	114	103
25. Cc1ccc([N+](=O)[O-])c(OCCN2CCCCCC2)c1
→ 0.2	i	0.93	-2	-17	126	107
26. CCC(=O)c1ccc(N2CCN(C(=O)COc3ccc(F)cc3)CC2)c(F)c1
→ -0.2	i	1	2	nt	nt	99
27. Fc1cc2nccnc2cc1N1CCSCC1
→ -1.1	i	1.1	-2	-22	166	104
28. CC1=C(C(=O)Nc2ccccc2)C(c2ccc(C)o2)n2c(s/c(=C\c3ccco3)c2=O)=N1 (stereo not given)
→ -2.3	i	0.86	-9	-61	120	162
29. CCCCOC(=O)n1c(SCC(=O)N(CC)CC)nc2ccccc21
→ -0.1	i	1	1	-195	52	34
30. COc1ccc(C(=O)Nc2ccc(C)cc2C(=O)c2ccccc2)cc1
→ 0.0	i	1.1	-13	nt	nt	105

Of the compounds above, four contain a Cl atom.
Each structure is followed by: GALR2 ag	HSV augment	HSV augment primary fold	PKD1 kinase inh	Insulin prom inh	Insulin prom inh cell count	RGS16-Gao HTS
2. NC(=O)NCc1ccccc1Cl
→ nt	i	1.1	0	nt	nt	99
3. O=C(CCc1nc(-c2ccccc2F)no1)NCCc1ccccc1Cl
→ -1.3	i	0.97	-1	-46	103	101
9. CCOC(=O)C1=C(c2ccccc2)NC(=O)NC1c1cc(Cl)c(O)c(OC)c1 (stereo not given)
→ nt	i	0.91	-3	13	89	84
10. O=C(Nc1ccc(Cl)cc1C(=O)Nc1ccccn1)c1ccco1
→ -2.1	i	0.55	0	8	107	107

Going on with the list.
Each structure is followed by: GALR2 ag	HSV augment	HSV augment primary fold	PKD1 kinase inh	Insulin prom inh	Insulin prom inh cell count	RGS16-Gao HTS
31. COc1cc(NC(=O)CSc2nnc(-c3ccncc3)n2C2CCCCC2)ccc1NC(=O)c1ccco1
→ -1.5	i	1.1	-6	14	67	104
32. CCCOc1ccc(-c2nc(C#N)c(N3CCc4ccccc4C3)o2)cc1
→ -0.7	i	0.94	-5	31	62	100
33. CC1(C)CC(=O)c2cn3c(nc2C1)nc1ccccc13
→ -2.3	i	0.95	0	-86	104	67
34. COC(=O)C1=C(CSCc2ccccc2)NC(=O)NC1c1cc(C)ccc1C (stereo not given)
→ -0.7	i	0.91	-3	-75	81	95
35. O=C(CN(c1ccccc1)S(=O)(=O)c1ccccc1)NCCSc1nc2ccccc2s1
→ -2.9	i	1.1	2	nt	nt	110
36. C=CC[n+]1ccn(-c2nc3ccccc3nc2[N-]S(=O)(=O)c2cccs2)c1
→ nt	i	1	nt	nt	nt	99
37. O=C(O)C1=C[C@@H](c2coc3ccccc3c2=O)C[C@@H](OCc2ccc(CO)cc2)O1
→ nt	i	1.1	-4	nt	nt	103
38. Cc1[nH]c(=S)[nH]c(=O)c1CCC1OCCO1
→ nt	i	0.93	nt	nt	nt	115
39. COC(=O)c1ccc(-n2nnnc2SCC(=O)Nc2ccccc2C(=O)OC)cc1
→ -1.2	nt	nt	3	nt	nt	103
40. COc1ccc(OC)c(CNC(=O)c2coc(=O)c3ccccc23)c1
→ nt	i	0.85	-1	nt	nt	105
41. COCCCN1C(=O)CS/C1=N\S(=O)(=O)c1ccccc1
→ nt	i	0.94	nt	nt	nt	78
42. CN1CCN(c2ccc(NC(=O)c3ccc(-c4cccc([N+](=O)[O-])c4)o3)cc2)CC1
→ nt	i	0.82	4	-11	146	101
43. CCOC(=O)CSc1nnc(CNC(=O)c2ccco2)n1C
→ -2.3	i	1.2	-14	nt	nt	76
44. Cc1ccc(-n2cccc2/C=C2/NC(=O)N(CC(=O)Nc3cccc(C)c3)C2=O)cc1
→ 2.3	i	0.75	0	nt	nt	99
45. CCC(=O)N1c2ccccc2C(N(C(C)=O)c2ccccc2)CC1C (stereo not given)
→ -2.1	i	0.85	-6	-94	109	83
46. O=C1CN(S(=O)(=O)c2ccccc2)c2ccccc2N1
→ nt	i	0.96	0	nt	nt	99
47. COCCNC(=O)c1c[nH]c2ccc(S(=O)(=O)N3CCc4ccccc43)cc2c1=O
→ nt	i	1.1	-4	nt	nt	97
48. COc1ccccc1/C=C1\S/C(=N/NC(=O)c2cccc(Br)c2)NC1=O
→ -2.6	i	0.89	-2	8	61	105
49. Cc1cc(C)c(C#N)c(SCC(=O)N(C)C2CCCCC2)n1
→ -2.4	i	1	-1	nt	nt	114
50. CCN1CCCC1CNS(=O)(=O)c1ccc(C(=O)Nc2ccccc2)cc1 (stereo not given)
→ -1.6	i	0.79	-4	-500	50	104
51. CCOCCCn1cnc2c(c1=O)c1nc3ccccc3nc1n2-c1ccc(C)cc1
→ -4.3	i	0.94	-13	36	100	149
52. COc1ccc(C2CC(=O)Nc3ccccc3S2(=O)=O)cc1OC (stereo not given)
→ -0.2	i	0.96	-8	23	122	100
53. CCOc1ccc(OCc2cccc(C(=O)N/N=C/c3cccnc3)c2)cc1
→ 0.5	i	1	-20	-53	103	118
54. O=C1CC(N2CCN(S(=O)(=O)c3cccc(C(F)(F)F)c3)CC2)C(=O)N1Cc1ccccc1 (stereo not given)
→ 0.3	i	0.82	2	-91	111	71
55. CC1(C)CC(=O)C2=C(C1)NC1=C(C(=O)c3ccccc31)C2c1ccc(Cl)cc1 (stereo not given)
→ 1.4	i	0.84	1	nt	nt	62
56. Cc1nc(NC(=O)/C=C/c2ccccc2)n[nH]1
→ -0.4	i	0.79	-2	-80	119	106
57. Cc1ccc2nc(N/C(=N/S(=O)(=O)c3cccs3)c3ccccc3Cl)sc2c1
→ nt	i	0.92	5	nt	nt	105
58. CCOc1ccc(C(C)C)cc1S(=O)(=O)N1CCOCC1
→ nt	i	0.92	3	36	101	103
59. CC(C)Cn1cnc2c1c(=O)n(CC(=O)N(C)C)c(=O)n2Cc1ccccc1
→ nt	i	1	-3	nt	nt	103
60. Cc1ccc(CCCOC(=O)C[N+]2(C)CCOCC2)cc1
→ -1.9	i	0.92	-2	58	68	108
61. O=C(COC(=O)c1ccc(O)cc1)Nc1ccccc1[N+](=O)[O-]
→ nt	i	0.92	-5	nt	nt	98
62. COC(=O)c1onc(-c2c(OC)cc(OC)cc2OC)c1C(=O)OC
→ -0.6	i	0.97	6	-23	83	48
63. O=S(=O)(c1ccc2ccccc2c1)N1CCCCCC1
→ nt	i	1	1	33	189	103
64. CCc1nc(C)ccc1OCC(=O)O
→ -2.5	i	1	-15	23	108	98
65. O=C1c2ccccc2C(=O)N1CCc1csc(NNc2nc(CCN3C(=O)c4ccccc4C3=O)cs2)n1
→ nt	i	0.83	-4	nt	nt	97
66. S=C(c1ccc(-c2ccc(Cl)cc2Cl)o1)N1CCCCC1
→ 0.1	i	1	-6	7	93	85
67. CCCN1CCN(CCCNC(=O)C2CCCN(c3nc4ccc(OCC)cc4s3)C2)CC1 (stereo not given)
→ -2.2	i	0.96	-1	-10	145	109
68. Cc1nn2c(C(F)(F)F)cc(-c3ccc(Cl)cc3)nc2c1C(=O)N1CCOCC1
→ 0.8	i	1.1	-1	79*	72*	96
69. CCOC(=O)CN1c2ccccc2NC(=O)CC1C (stereo not given)
→ -0.8	i	0.9	-11	nt	nt	98
70. CCOC(=O)c1ccc(Nc2cnc3ccccc3n2)cc1
→ nt	i	0.92	-5	-15	145	99
71. O=C(NC1CC1)c1cc(-c2ccccn2)nc2ccccc12
→ -4.2	i	0.81	1	-44	242	92
72. O=C1c2cccc(OCC(=O)N3CCCc4ccccc43)c2CCN1Cc1ccc(Br)cc1
→ 0.6	i	0.95	-3	nt	nt	85
73. CCOC(=O)Cc1csc(NC(=S)NC(=O)c2ccc(C)cc2)n1
→ 0.7	i	1.1	-5	nt	nt	121
74. O=C1OCC2=C1C(c1ccc3c(c1)OCO3)Sc1ccccc1N2 (stereo not given)
→ -1.7	i	1	-13	nt	nt	101
75. COc1ccc(Cc2nnc(Nc3ccc4c(c3)OCCO4)[nH]c2=O)cc1
→ nt	i	0.9	-4	nt	nt	99

High-throughput results: PubChem, several laboratories
